miR-21 reporter – qHTS Assay for Modulators of miRNAs and/orActivators of miR-21; HeLa miR-21 FLuc reporter, luciferase, 48 h; Potency, µM (highest dose often 38.3 µM), for inactives: top-dose reporter change, positive = more light; 340,000 tested, under 10 active; AID 2288, 2010; active = well fitted rising curve with a large enough effect; inconclusive = small, poorly fitted or top-dose-only effect; inactive = no such curve, though single readings can be large or run the other way;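 also: % of control where 0% means no effect; miR-21 action dims this reporter so a rising signal means less miR-21 action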
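Luminescence from a firefly luciferase reporter carrying a miR-21 binding site downstream, stably expressed under a CMV promoter in HeLa cells that make miR-21 endogenously, reports miRNA modulation after 48 h compound exposure up to approximately 40uM final.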
The depositor's hits bear a star; ? = inconclusive.

Start of the listing, in advance:
SMILES | miR-21 reporter
COc1ccc(OCC(=O)Nc2nnc(S(=O)(=O)N3CCc4ccccc43)s2)cc1 | -12%
COc1ccc(OC)c(-c2noc(N3CCN(c4cccc(C)c4C)CC3)n2)c1 | 1%
CC(=O)c1cccc(NC(=O)c2noc3c2CSc2ccccc2-3)c1 | -2%

Main list, previewed entries included:
SMILES | miR-21 reporter
COc1ccc(OCC(=O)Nc2nnc(S(=O)(=O)N3CCc4ccccc43)s2)cc1 | -12%
COc1ccc(OC)c(-c2noc(N3CCN(c4cccc(C)c4C)CC3)n2)c1 | 1%
CC(=O)c1cccc(NC(=O)c2noc3c2CSc2ccccc2-3)c1 | -2%
Cc1coc2cc3oc(=O)c(CCC(=O)NCc4ccc(Cl)cc4)c(C)c3cc12 | 2%
O=C(CCS(=O)(=O)c1ccc(Br)s1)Nc1cc(C(F)(F)F)cc(C(F)(F)F)c1 | 9%
CCOc1cc(C(=O)NCCc2sc(-c3ccc(F)cc3)nc2C)cc(OCC)c1OCC | -2%
CC(=O)N1c2ccc(S(=O)(=O)N3CCCCCC3)cc2CC1C(=O)NC(C)C (stereo not drawn) | -3%
CCCN(Cc1cccs1)C(=O)Nc1cc(OC)ccc1OC | -4%
O=[N+]([O-])c1cc(-c2nc(-c3ccco3)no2)ccc1NCc1ccccc1 | -10%
Cc1cccc(N(C)C(=O)Cn2c(=O)oc3cc(S(=O)(=O)N4CCCCC4)ccc32)c1 | 0%
COc1ccc(-c2noc(C3CC(=O)N(c4ccc5c(c4)OCCO5)C3)n2)c(OC)c1 (stereo not drawn) | -2%
CCC1=Nc2cc(C(=O)NC3CCC(C)CC3)ccc2Sc2ccc(C)cc21 (stereo not drawn) | 23%
Cn1c(Oc2ccccc2)nc2c1c(=O)n(Cc1ccc(Cl)cc1Cl)c(=O)n2C | -2%
COc1cc(C2NC(=O)c3c(sc4c3CCN(C)C4)N2)ccc1OC(=O)c1ccccc1 (stereo not drawn) | -68%
COc1cc2oc(=O)c(CC(=O)NCCc3ccccc3F)c(C)c2cc1OC | -9%
CCCN1CN=C(NS(=O)(=O)c2ccc(NC(C)=O)cc2)NC1 | -7%
COc1cccc(-n2c(C)nc3c(cnn3-c3ccc(C)c(C)c3)c2=O)c1 | -14%
Nc1nn(-c2ccccc2)nc1C(=O)OCc1ccccc1Br | -16%
O=C(Nc1ccc(S(=O)(=O)N(Cc2ccccc2)c2ccccc2)cc1)c1ccccc1F | 0%
COc1cccc(N2CCN(C(=O)c3cc4c(s3)-c3c(C)cccc3OC4)CC2)c1 | -6%
CCOc1ccc(Cn2c(CNS(=O)(=O)c3ccc(Cl)s3)nc3cccnc32)cc1 | 2%
Cc1c(-c2ccccc2)c(=O)oc2c(CN3CCOCC3)c(O)ccc12 | -7%
CC(C)(C)C(=O)NCCc1nc2ccccc2n1CCCCOc1ccc(Cl)cc1 | ?
O=C(CCCn1c(=O)c2ccccc2n(CC(=O)Nc2cccc(C(F)(F)F)c2)c1=O)NCc1ccc2c(c1)OCO2 | 0%
Clc1ccc(NCc2ccsc2)cc1 | -9%
C=Cc1ccc(CN2C(=O)N(c3ccc(C)c(C)c3)S(=O)(=O)c3ccccc32)cc1 | 10%
Cc1ccc(Cl)cc1NC(=O)c1cc2c(=O)n3cccc(C)c3nc2n1C | 0%
CCOC(=O)c1c(C)oc2ccc(N(C(C)=O)S(=O)(=O)c3c(C)cc(C)cc3C)cc12 | -6%
Cc1ccc(Cn2c(CNS(=O)(=O)c3ccc(F)c(Cl)c3)nc3cccnc32)cc1 | 1%
COc1ccc(CNC(=O)c2ccc3[nH]c(C)c(C)c3c2)c(OC)c1 | -7%
COc1ccc(Cl)cc1NC(=O)C(C)n1c(=O)cc(C(F)(F)F)c2c(C)nn(C)c21 (stereo not drawn) | 1%
CCOC(=O)N1CCc2c(sc3c2c(=O)n(CCc2ccccc2)c(=O)n3CC(=O)Nc2ccccc2C)C1 | 6%
CCOc1cc(-c2nc(-c3ccc(-c4ccccc4)nc3OCC)no2)cc(OCC)c1OCC | 1%
O=c1ccc2cc(S(=O)(=O)N3CCCC3)ccc2[nH]1 | -3%
COc1ccc(NC(=O)c2oc3ccccc3c2NC(=O)COc2ccc(F)cc2)c(OC)c1 | 0%
CCOc1ccc(CNC(=O)C2CCCN(S(=O)(=O)c3ccc4c(c3)CCCC(=O)N4)C2)cc1 (stereo not drawn) | 29%
CC1CCN(c2nn3c(=O)c(C(=O)NCCc4ccc(Cl)cc4)cnc3s2)CC1 | -4%
Cc1cccc(-c2noc(-c3ccc(NCC4CCCO4)c([N+](=O)[O-])c3)n2)c1 (stereo not drawn) | -2%
CCOc1ccccc1CC1C(=O)Nc2ccc(Br)cc21 (stereo not drawn) | 1%
COC(=O)c1ccc(NC(=O)CSc2ncc3c(n2)-c2cc(Cl)ccc2N(Cc2ccccc2)S3(=O)=O)cc1 | 6%

Some values from the list.
Reading of O=c1ccc2cc(S(=O)(=O)N3CCCC3)ccc2[nH]1 in miR-21 reporter: -3%
Reading of CCOc1ccccc1CC1C(=O)Nc2ccc(Br)cc21 (stereo not drawn) in miR-21 reporter: 1%
Reading of COc1ccc(CNC(=O)c2ccc3[nH]c(C)c(C)c3c2)c(OC)c1 in miR-21 reporter: -7%
Reading of COc1ccc(NC(=O)c2oc3ccccc3c2NC(=O)COc2ccc(F)cc2)c(OC)c1 in miR-21 reporter: 0%
Reading of CCOc1ccc(CNC(=O)C2CCCN(S(=O)(=O)c3ccc4c(c3)CCCC(=O)N4)C2)cc1 (stereo not drawn) in miR-21 reporter: 29%

Going on with the list:
SMILES | miR-21 reporter
CC(=O)c1cccc(NC(=O)CN2C(=O)CCc3cc(S(=O)(=O)N4CCCCC4)ccc32)c1 | 5%
CCc1nnc(NC(=O)CSc2nccn2Cc2ccc(Cl)cc2)s1 | -1%
CCCS(=O)(=O)c1ncc(Cl)c(C(=O)Nc2c(C(=O)Nc3ccccc3)oc3ccccc23)n1 | ?
COc1cccc(NC(=O)CC2NCCNC2=O)c1 (stereo not drawn) | -9%
CCN(CC)c1ccc(C(=O)Nc2ccc3nc(N(CC)CC)cc(C)c3c2)cc1 | 27%
COc1cc(OC)cc(C(=O)Nc2ccc(S(=O)(=O)N3CCCCC3c3cccnc3)cc2)c1 (stereo not drawn) | 21%
Cc1ccccc1-n1nc(CO)c(C(=O)NCC(c2ccccc2)c2ccccc2)n1 | 28%
COc1cc(CN(CC2CCCO2)C(=O)c2ccccc2F)cc(OC)c1OC (stereo not drawn) | 4%
COc1cc(NC(=O)N2c3ccccc3Sc3ccccc32)cc(OC)c1 | -10%
CCCOc1ccc(C(=O)NCC2OCCc3ccccc32)cc1 (stereo not drawn) | -24%
CCCCc1nn2c(=O)cc(COC(=O)c3cccs3)nc2s1 | -21%
Fc1ccc(-c2noc3ncnc(N4CCCCC4)c23)cc1 | -2%
CCS(=O)(=O)c1nc(S(=O)(=O)c2ccc(Cl)cc2)c(NCc2ccc(Cl)cc2)s1 | -12%
CCc1cccc(NC(=O)c2coc(=O)c3ccccc23)c1 | ?
COc1cc([N+](=O)[O-])ccc1NC(=O)N1CCN(c2cc(-c3noc(C)n3)ccc2C)CC1 | -5%
CCc1ccc(C2=C(C)C(N3CCC(C(=O)NCc4ccccc4)CC3)=NS2(=O)=O)cc1 | 7%
Cc1ccc(-n2cc(C(=O)Oc3cccc(C)c3)c3ccccc3c2=O)cc1 | -3%
Cc1ccc(CNC(=O)c2cccn2-c2nnc(N3CCCCC3)s2)cc1 | 12%
Cc1ccc(C)c(N2CCN(C(=O)c3cc(S(=O)(=O)N4CCCCC4)cn3C)CC2)c1 | ?
Cc1ccc(C)c(N2CCN(Cc3nnc(-c4ccccc4)o3)CC2)c1 | -6%

Structures from the list above that have an aryl thioether with sulfur outside any ring:
SMILES | miR-21 reporter
COC(=O)c1ccc(NC(=O)CSc2ncc3c(n2)-c2cc(Cl)ccc2N(Cc2ccccc2)S3(=O)=O)cc1 | 6%
CCc1nnc(NC(=O)CSc2nccn2Cc2ccc(Cl)cc2)s1 | -1%

More records follow.
SMILES | miR-21 reporter
CCC(CC)C(=O)Nc1cccc(-c2nc3ccccc3s2)c1 | 15%
COc1ccc(Nc2nc3ccc(Cl)cc3n3nnnc23)cc1OC | -3%
CCc1ccc(S(=O)(=O)c2nnn3c2nc(N(CC)Cc2ccccc2)c2cc(Cl)ccc23)cc1 | -4%
Cc1ccc2oc(C(=O)Nc3sc4c(c3C(=O)NCc3ccccc3)CCCC4)cc(=O)c2c1 | -2%
Cc1cccc(Cn2nc(C)n3c(cc4cc(C)ccc43)c2=O)c1 | 5%
O=C(Sc1cccc2cccnc12)c1ccccc1Br | ?
COc1cccc(C2=NN(S(C)(=O)=O)C(c3cn(-c4ccccc4)nc3-c3cccs3)C2)c1 (stereo not drawn) | -24%
COCCNC(=O)CSc1c(C)cnc2c1c(=O)n(C)c(=O)n2C | -2%
CC(=O)N1c2nc(-c3ccco3)nn2C2(CCCCC2)[C@@H]2CCCC[C@@H]21 | -3%
COc1ccc(-c2nc(S(=O)(=O)c3ccc(Cl)cc3)c(N3CCCCCC3)o2)cc1 | -2%
COC(=O)c1ccccc1NC(=O)C/C(C)=N/NC(=O)Cc1ccc(Cl)cc1 | 11%
CN(C)CCNC(=O)c1ccc(-n2c(-c3ccccc3)cc3c2CCCC3)cc1 | 20%
CCCOc1ccc(CC2C(=O)Nc3ccc(Br)cc32)cc1 (stereo not drawn) | ?
CN(C)S(=O)(=O)c1ccc2c(c1)N(CC(=O)N1CCC(C(N)=O)CC1)CCS2 | -4%
COc1ccc(CNS(=O)(=O)c2cc3c(cc2C)n(C)c(=O)c(=O)n3C)cc1 | 3%
Cc1ccc(C)c(CN2C(=O)c3ccccc3S(=O)(=O)c3ccc(C(=O)NCCC4=CCCCC4)cc32)c1 | 1%
Cn1nc(C(=O)Nc2ccc(F)c(Cl)c2)c2c1-c1ccccc1S(=O)(=O)C2 | -14%
Fc1ccc2ncc3c(-c4ccccc4)n[nH]c3c2c1 | -1%
COc1ccc(-c2cc(C(F)(F)F)nc(NCc3ccccc3)n2)cc1OC | -14%
CCN1CCN(Cc2c(O)ccc3oc(C)c(C(=O)Nc4ccc(C)cc4C)c23)CC1 | -7%
O=C(COc1ccc(F)cc1)Nc1ccccc1C(=O)OCc1cc(=O)n2ccsc2n1 | -8%
COc1ccc(C(=O)Oc2ccc(C(c3c(C)[nH][nH]c3=O)c3c(C)[nH][nH]c3=O)cc2)cc1 | -27%
COc1ccc(CNc2oc(COc3cccc(C)c3)nc2C#N)cc1 | 23%
COc1ccccc1CNC(=O)CSc1nc(=O)[nH]c2c1CCC2 | -1%
O=C(C1CC1)N1CCN(c2nc3ccc(F)cc3s2)CC1 | -8%
Cc1c(Cl)cccc1NC(=O)Cn1c(=O)cc(C)c2c(C)nn(-c3cccc(F)c3)c21 | -1%
COc1ccc(-c2nc3n(n2)C(c2ccccc2F)C(C(=O)Nc2cccnc2)=C(C)N3)cc1OC (stereo not drawn) | 0%
CC(=O)c1cccc(NC(=O)CCc2c(C)nc3c(-c4ccc(F)cc4)c(C)nn3c2C)c1 | 5%
Cc1cc(C)c(CSc2nnc(C)n3c2cc2occc23)c(C)c1 | -15%
COc1ccc(N2CC(NC(=O)c3ccc4c(c3)OCO4)CC2=O)cc1 (stereo not drawn) | -3%
COc1ccc(NC(=O)CN(c2cc(C)cc(C)c2)S(=O)(=O)c2c(C)noc2C)cc1Cl | -1%
Cc1cc2[nH]c(=O)c(=O)[nH]c2cc1S(=O)(=O)Nc1ccc(OC(F)(F)F)cc1 | -7%
COc1ccc(N2CCN(C(=O)c3nc(-c4ccc(Cl)cc4)n4c3CCCCC4)CC2)cc1 | -6%
Cc1ccc2oc(-c3ccc(C)c(NC(=O)c4ccc(C(C)(C)C)cc4)c3)nc2c1 | -3%
COc1ccc(NC(=O)c2ccco2)cc1NC(=O)COc1ccc(Cl)cc1C | -24%
COc1ccc(-c2ccnc3c(-c4ccc(F)cc4)c(C)nn23)cc1OC | -6%
CN(Cc1ccccc1)c1ncnc2onc(-c3ccc(F)cc3)c12 | -5%
CCCNC(=O)CN1C(=O)CSc2ccc(S(=O)(=O)N3CCC(C)CC3)cc21 | 0%
Cn1c(CNC(=O)CSc2n[nH]c(-c3ccccc3Cl)n2)nc2ccccc21 | -10%
CCOC(=O)c1cc(-c2ccc(OC)cc2)n(CCC(=O)NC2CCCCC2)c1C | 7%
Cc1cccc(Oc2ccc(NC(=O)CCC(=O)OCC(=O)c3ccc(Br)cc3)cc2)c1C | -3%
CCS(=O)(=O)c1ncc(Cl)c(C(=O)Nc2c(C(=O)c3ccc(C)cc3)oc3ccccc23)n1 | 1%
Cc1cc(S(=O)(=O)Nc2cc3c(cc2Cl)n(C)c(=O)c(=O)n3C)ccc1F | -7%
COc1ccc(CNC(=O)c2cnn(-c3ccccc3)c2-n2cccc2)cc1OC | ?
CCc1ccc(S(=O)(=O)NCCc2csc3nc(-c4ccccc4)nn23)s1 | ?
Cc1ccc2c(CC(=O)Nc3ccccc3C(F)(F)F)coc2c1C | -12%
CCOc1ccccc1-c1nc(-c2ccc(-c3ccccc3)nc2OCC)no1 | 1%
CC(=O)c1cccc(NC(=O)CCc2c(C)nc3nc(CN)nn3c2C)c1 | 1%
Cc1cc(C)cc(NC(=O)C(=O)NCC(c2ccc3c(c2)OCO3)N2CCN(C)CC2)c1 (stereo not drawn) | -20%
CCCCNC(=O)c1cccc(-n2cnc3cccnc32)c1C | -5%
NC(=O)c1nc(-c2ccc(F)c(F)c2)nc2c1[nH]c(=O)n2-c1cccc(Cl)c1 | 0%

Fetched one by one from the entries so far:
SMILES | miR-21 reporter
COc1ccc(Cl)cc1NC(=O)C(C)n1c(=O)cc(C(F)(F)F)c2c(C)nn(C)c21 (stereo not drawn) | 1%
Cc1ccc2c(CC(=O)Nc3ccccc3C(F)(F)F)coc2c1C | -12%
CCOC(=O)c1c(C)oc2ccc(N(C(C)=O)S(=O)(=O)c3c(C)cc(C)cc3C)cc12 | -6%

Assay outcomes (PubChem BioAssay)

The list is partial (hit frequency here may not be typical).
